Assay outcomes as filed in PubChem BioAssay.
Rango dissoc inh = prevents RanGTP from dissociating the Rango-importin beta complex. 0.071% of 340,000 active. Biochemical FRET Rango-importin beta, RanGTP-induced dissociation. O95149+P62826. Potency, µM (top dose mostly 46.1 µM), for the others: at the highest dose activity change, negative = inhibition; active means falling FRET ratio curve, often poorly fitted, with flat reads before Ran was added; inconclusive means other falling curves, or compound fluorescence or quenching; inactive means flat or rising ratio curve;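 further: potency means the concentration at half of the fitted maximal effect; % of control where 0% means no effect; nearly all actives have a fitted effect of over 45% in size; -100% = wells without RanGTP and RCC1; the record marks most hits as doubtful in a second field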
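Two FRET readings bracket the reaction: one 5 min after compound meets Rango–importin beta, another 45 min after RanGTP-RCC1 (0.6 uM Ran, 0.2 uM RCC1, 2 mM GTP) is added. Only the second defines inhibition.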
Rango-impB inh = inhibitors of Rango-importin beta complex formation; Q14974; Rango CFP/YFP FRET sensor + importin beta, 45 min; Potency, µM (doses to about 92.2 µM), for the others: top-dose inhibition of complex formation; 0.031% of 340,000 active; active = rising FRET ratio curve, often small or poorly fitted; inconclusive = mostly compound fluorescence or quenching in the first reads; inactive = flat curves in all reads;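 further: potency means the concentration at half of the fitted maximal effect; 0% = DMSO wells and 100% = buffer wells lacking importin beta; nearly all actives have a fitted effect of over 15% in size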
Target sequence (Q14974 whole entry, looked up): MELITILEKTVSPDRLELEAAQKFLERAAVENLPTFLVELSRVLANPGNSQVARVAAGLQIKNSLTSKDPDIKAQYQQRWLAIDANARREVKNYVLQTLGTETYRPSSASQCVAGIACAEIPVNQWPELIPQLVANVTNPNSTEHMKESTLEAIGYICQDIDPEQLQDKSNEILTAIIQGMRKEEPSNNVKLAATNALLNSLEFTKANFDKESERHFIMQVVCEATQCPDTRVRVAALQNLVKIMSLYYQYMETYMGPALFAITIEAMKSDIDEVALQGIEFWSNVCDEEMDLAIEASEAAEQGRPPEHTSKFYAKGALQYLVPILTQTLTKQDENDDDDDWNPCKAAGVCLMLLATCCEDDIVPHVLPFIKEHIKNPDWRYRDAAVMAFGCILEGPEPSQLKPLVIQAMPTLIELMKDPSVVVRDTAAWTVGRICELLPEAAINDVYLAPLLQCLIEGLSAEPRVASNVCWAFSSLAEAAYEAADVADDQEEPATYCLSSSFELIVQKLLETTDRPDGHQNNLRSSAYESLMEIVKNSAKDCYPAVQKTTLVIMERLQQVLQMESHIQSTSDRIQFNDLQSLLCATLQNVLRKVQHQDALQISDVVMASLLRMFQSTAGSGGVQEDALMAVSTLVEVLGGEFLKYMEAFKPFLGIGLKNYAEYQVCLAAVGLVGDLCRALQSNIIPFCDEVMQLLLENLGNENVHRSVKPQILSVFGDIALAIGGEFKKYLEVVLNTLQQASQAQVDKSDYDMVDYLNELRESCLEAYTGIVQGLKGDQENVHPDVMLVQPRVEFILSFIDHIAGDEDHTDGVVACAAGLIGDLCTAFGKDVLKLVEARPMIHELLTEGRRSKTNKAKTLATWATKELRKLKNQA
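FRET biosensor (snurportin 1 IBB flanked by EYFP and cerulean), 50 nM, with compound 5 min, then 0.125 microM importin beta in PBS, 1 mM DTT, 0.02% Tween-20, 0.1% BSA. CFP/YFP ratio read after 45 min at room temperature; pre-read flags interference.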
miR-21 reporter = miR-21 reporter, rising signal | HeLa miR-21 FLuc reporter, luciferase, 48 h | AID 2288 | 340,000 tested, under 10 active | Potency, µM (doses to about 38.3 µM), for inactives: top-dose reporter change, positive = more light; active = well fitted rising curve with a large enough effect; inconclusive = small, poorly fitted or top-dose-only effect; inactive = no such curve, though single readings can be large or run the other way;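 further: % of control where 0% means no effect; miR-21 action dims this reporter so a rising signal means less miR-21 action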
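Luminescence from a firefly luciferase reporter carrying a miR-21 binding site downstream, stably expressed under a CMV promoter in HeLa cells that make miR-21 endogenously, reports miRNA modulation after 48 h compound exposure up to approximately 40uM final.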
GLA inh pH 4.5 = alpha-galactosidase A (human) inhibition, pH 4.5; P06280; purified enzyme, 4-MU-alpha-Gal fluorescence, pH 4.5; activity change, negative = inhibition, % at 105 µM; 230,000 tested, under 10 active; AID 1467; inconclusive = small, poorly fitted or top-dose-only inhibition, or a rising curve; inactive = flat fitted curve, though single readings scatter; no compound was filed as active;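 further: 0% = full activity with enzyme and -100% = basal without enzyme; dose as in the result columns while the protocol names 77 µM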
* = called active by the depositor; ? = inconclusive; . = no result given.

canonical_smiles | GLA inh pH 4.5 | miR-21 reporter | Rango-impB inh | Rango dissoc inh
CC(=O)/C(=N/Nc1cccc(Cl)c1)Sc1nnc(C(O)c2ccccc2)n1-c1ccccc1 (centres undefined) | -11 | -8% | 0.3% | -18%
CCCCCC(N)=O | . | . | 1.8% | 4%
CCOc1cc(-c2nnc(-c3ccco3)o2)cc(OCC)c1OCC | 1 | -3% | 7.4% | 11%
COC(=O)C1=CN(Cc2ccc(OC)cc2)C=C(C(=O)OC)C1c1ccsc1 | ? | 3% | ? | ?
CCN(CC)CCOc1cc2c(nn1)Oc1ccccc1N2C | 17 | -21% | 1.9% | 6%
O=C(Nc1nccs1)c1cccnc1Cl | . | -7% | -0.8% | 13%
O=C(O)c1ccccc1NS(=O)(=O)c1ccc(NNC(=S)Nc2ccc(OC(F)F)cc2)c([N+](=O)[O-])c1 | -27 | 14% | -2.2% | 2%
CC(=O)Nc1ccccc1P(=O)(c1ccccc1)c1ccccc1OC(C)=O (centres undefined) | -3 | 0% | 1.5% | -1%
COc1ccc(NC(=O)/C=C/c2cccc(C(F)(F)F)c2)cn1 | . | 27% | -0.4% | ?
Cc1ccc(-c2nc(CS(=O)CC(=O)NCCCN3CC(C)CC(C)C3)c(C)o2)cc1 (centres undefined) | 1 | -6% | 4.3% | 1%
CCCCC(OC(=O)CN1C(=O)COc2ccccc21)C(=O)NC1CCCCC1 (centres undefined) | . | -3% | -1.2% | -5%
O=C1C(=C2CCCCC2)SC(=S)N1Cc1ccco1 | 4 | 12% | -3.1% | -9%

(further entries)
canonical_smiles | GLA inh pH 4.5 | miR-21 reporter | Rango-impB inh | Rango dissoc inh
Cc1ccc(-c2cc(-c3ccccc3Cl)c(C#N)c(N)n2)o1 | ? | 3% | ? | ?
COc1ccc(NC(=O)CN2C(=O)CC(C)S(=O)(=O)c3ccccc32)cc1 (centres undefined) | . | -1% | 3.3% | 12%
Cc1ccc(CN2C(=O)c3ccccc3NC23CCN(Cc2ccccc2)CC3)cc1 | -15 | -2% | -4.8% | -10%
CSC1=Nc2sc3c(c2C2=NCCN12)CC(C)(C)OC3 | . | . | ? | -9%
COc1cc(/C=C2\SC(=S)N(CC(=O)Nc3ccccn3)C2=O)cc(OC)c1OC | 4 | 17% | ? | ?
CCNC(=O)N(C)C[C@H]1N[C@@](CC)(C(=O)OC)[C@H]2C(=O)N(Cc3ccccc3)C(=O)[C@@H]12 | . | . | -0.6% | 0%
CC(=O)CC(=O)Nc1ccc(Nc2ccccc2)cc1 | -5 | -6% | 0.1% | 4%
Cc1ccc(C2CC(=O)C=C(NCC(C)C)C2)cc1 (centres undefined) | 6 | -10% | 0.2% | -2%
CCC(Oc1ccc(C)cc1)C(=O)Nc1ccc2c(c1)n(C)c(=O)n2C (centres undefined) | . | 1% | 0.3% | 1%
CC1Cc2ccccc2N1C(=O)CSc1nc2c(c(=O)n(C)c(=O)n2C)n1Cc1ccc(F)cc1 (centres undefined) | . | . | 2.7% | 4%
COc1ccc(/C=N/N2C(=O)CSC2=S)cc1 | 6 | -14% | 0.7% | -8%
CSc1ncccc1C(=O)OCC(=O)c1ccccc1Br | -28 | -7% | 3.7% | 11%

Following part.
canonical_smiles | GLA inh pH 4.5 | miR-21 reporter | Rango-impB inh | Rango dissoc inh
COc1ccc(CCNC(=O)COC(=O)/C=C/c2ccc(OCC#N)c(OC)c2)cc1OC | 2 | -3% | ? | 18%
Cc1cccc(C(=O)OCC(=O)NCCCc2ccccc2)c1O | . | -3% | 0.3% | 14%
COc1ccc(OC)c(-n2nnnc2SCC(=O)Nc2ccc3c(c2)OCCO3)c1 | -6 | -16% | 2.8% | 6%
COCCCn1c(C)cc(C(=O)COC(=O)C23CC4CC(CC(O)(C4)C2)C3)c1C | . | . | 3.0% | 0%
CC(C)c1cc(NC(=O)C(C)(C)C)cc(C(C)C)c1O | -3 | -5% | -1.0% | -13%
CN1C(=O)CCC1(O)c1ccccc1 (centres undefined) | 6 | 0% | 0.7% | -15%
CC(=O)c1oc2ccccc2c1NC(=O)CCCN1C(=O)c2ccccc2C1=O | -1 | -2% | 1.9% | -7%
CC(=O)c1cccc(S(=O)(=O)Nc2cccnc2)c1 | . | -1% | 1.6% | 28%
CCOC(=O)Cc1csc(NS(=O)(=O)Cc2ccccc2)n1 | -21 | -7% | -0.5% | 3%
O=C1C2C3C=CC(C3)C2C(=O)N1CCC(=O)N1CCc2ccccc21 (centres undefined) | 5 | -2% | 1.8% | 12%
CCOCCCN1C(=O)CN(C2CCC(C)CC2)C(=O)C1c1ccc(C)cc1 (centres undefined) | -18 | -7% | -3.6% | 4%
CNC(=S)NNC(=O)c1cccc(C(F)(F)F)c1 | 1 | 1% | ? | ?

(next part)
canonical_smiles | GLA inh pH 4.5 | miR-21 reporter | Rango-impB inh | Rango dissoc inh
CCOC(=O)c1sc2nc(C)nc(SCC(=O)N(CC)C3CCS(=O)(=O)C3)c2c1C (centres undefined) | 3 | -4% | 0.3% | 0%
CN(CC(=O)N1CCN(Cc2ccccc2)CC1)C(=O)Cc1ccc(Cl)c(Cl)c1 | . | . | 7.7% | 13%
COc1cc(/C=C(\C#N)C(=O)NCc2ccccc2)ccc1OCc1ccc(C(=O)O)cc1 | -5 | -34% | -3.3% | 33%
O=C(NCc1ccc(F)cc1)Nc1ccc(Cl)cc1 | -3 | -20% | -4.7% | 14%
CC(C)(C)c1cc(C(C)(C)C)n(-c2ccccc2)n1 | -7 | 0% | -2.1% | 23%
Cc1nn(C)cc1/C=N/NC(=O)C1(O)c2ccccc2-c2ccccc21 | -3 | -1% | 3.3% | 6%
CCc1cccc(NC(=O)CCc2c(C)nn(-c3ccc(N4CCOCC4)nn3)c2C)c1 | . | -23% | -1.6% | 18%
COc1ccccc1NC(=O)COC(=O)Cc1cccs1 | -2 | -3% | -1.7% | 3%
CN1C(=O)C2(c3ccccc31)c1c(oc3ccccc3c1=O)C(=O)N2CCCO (centres undefined) | -1 | 0% | -3.0% | -2%
CCCCn1c(N)c(N(CCC(C)C)C(=O)c2ccc([N+](=O)[O-])s2)c(=O)[nH]c1=O | . | . | 0.4% | -29%
O=C(NC12CC3CC(CC(C3)C1)C2)N1CCN(c2nc(-c3ccccc3)cs2)CC1 | 3 | -7% | -0.1% | 1%
CCCCn1c2c(cc(C(=O)OC)c1=O)C(=O)CCC2 | . | . | 9.5% | -8%

Next part
canonical_smiles | GLA inh pH 4.5 | miR-21 reporter | Rango-impB inh | Rango dissoc inh
COc1cccc(CNC(=O)C(CCSC)NS(=O)(=O)c2ccc3c(c2)oc(=O)n3C)c1 (centres undefined) | -1 | -3% | -0.8% | 3%
CC(C)(C)OC(=O)N1CCC(C(=O)N2CCOCC2)CC1 | -1 | -1% | 0.0% | ?
CCOC(=O)c1cn(CC(=O)Nc2ccc(CC)cc2)nn1 | -13 | 2% | -2.2% | 1%
CC12CCC(C(=O)N3CCCCC3)(CC1=O)C2(C)C (centres undefined) | -6 | 6% | 1.7% | -10%
Cc1cc(C)nc(/N=C(\N)Nc2ccc(OCCC(C)C)cc2)n1 | . | 11% | 0.7% | 2%
Oc1ccc(/C=N/N2CCN(C3c4ccccc4-c4ccccc43)CC2)cc1O | -8 | 1% | -2.0% | 2%
CCOC(=O)C1=CN(Cc2cccc(F)c2)S(=O)(=O)NC1c1ccccc1 (centres undefined) | . | . | -2.7% | 17%
COc1cc(OC)c2c(=O)cc(-c3cccnc3)oc2c1 | 5 | -24% | -3.2% | 10%
O=C(C1CCCN1S(=O)(=O)c1cccc2nsnc12)N1CCCCCC1 (centres undefined) | 3 | -6% | -0.6% | -12%
O=C(NCc1cccc(F)c1)C1CCN(S(=O)(=O)Cc2ccccc2)CC1 | 5 | -2% | -2.3% | -7%
CCN(C(=O)COC(=O)c1cc([N+](=O)[O-])ccc1N1CCOCC1)c1ccccc1 | . | . | 1.1% | 0%
CC(C)NC(=O)C1CCN(Cc2cccc(Oc3ccccc3)c2)CC1 | . | 5% | -0.8% | 3%

Next structures:
canonical_smiles | GLA inh pH 4.5 | miR-21 reporter | Rango-impB inh | Rango dissoc inh
COc1cccc(-c2ccc(SCC(=O)N3CCOCC3)nn2)c1 | 4 | -20% | 6.4% | 0%
O=C(Nc1sc2c(c1C(=O)O)CCCCC2)c1ccco1 | -5 | 24% | 0.3% | 8%
COc1cc(/C=N/NC(N)=S)ccc1OC(=O)c1ccc(C)cc1 | 1 | 5% | -2.4% | 2%
COc1ccccc1[C@H]1C(c2ccccc2)=NN(c2ccccc2)[C@@H]1CO | ? | . | ? | ?
COc1ccc(CNC(=O)CSc2nnc(C)n2-c2ccc(F)cc2)cc1 | -5 | -4% | -0.5% | -3%
COC(=O)c1ccccc1SCc1csc(C)n1 | . | -4% | 0.0% | ?
CCOC(=O)C1=C(C)C(c2ccc(OC)cc2OC)NC(=O)N1 (centres undefined) | -10 | -1% | -4.0% | -1%
O=C(CSc1ccc(C(F)(F)F)cc1[N+](=O)[O-])Nc1ccc2ccccc2c1 | -5 | -10% | -0.1% | -2%
O=C(N/C(=C/c1cccc(Br)c1)c1nc(=S)[nH][nH]1)c1ccccc1 | -14 | 19% | -7.2% | 16%
CC(C)CC(=O)NC(=S)Nc1cccc(NC(=O)c2ccccc2)c1 | -5 | 0% | -0.7% | 13%
CC(=O)c1c(C)[nH]c(C(=O)OCc2ccc([N+](=O)[O-])cc2)c1C | . | -25% | 0.6% | 9%
Cc1ccc(OCC(=O)NNC(=O)c2cc(C)[nH]n2)cc1 | 3 | -4% | 1.7% | -8%

Further records:
canonical_smiles | GLA inh pH 4.5 | miR-21 reporter | Rango-impB inh | Rango dissoc inh
N#CCCn1nnc2ccccc21 | -2 | 0% | -0.1% | -2%
COc1cc2c(cc1NC(=O)CSc1nc3ccccc3[nH]1)oc1ccccc12 | 1 | 10% | 1.2% | 0%
Cc1nc2ccc(NC(=O)c3ccc4ccccc4n3)cc2s1 | -2 | -65% | 4.1% | 0%
O=C(COC(=O)CCC(=O)c1cccs1)Nc1ccccc1C(F)(F)F | . | . | 0.7% | 29%
COc1cc2c(cc1OC)CN(C(=S)Nc1ccc(C)cc1C)CC2 | -1 | -3% | 3.8% | -18%
O=C(/C=C/c1cccc(Br)c1)NC1CCN(Cc2ccccc2)CC1 | . | 6% | 1.9% | 7%
COc1ccc(CCNC(=O)c2ccc(OCc3c(C)noc3C)c(OC)c2)cc1 | . | . | 1.2% | -6%
COc1ccc(N2CCN(C(CNC(=O)COc3ccccc3)c3ccco3)CC2)cc1 (centres undefined) | . | . | -0.1% | 43%
O=C(c1ccco1)N1CCN(S(=O)(=O)Cc2ccc(Cl)cc2)CC1 | -4 | 0% | 5.2% | 6%
CCOC(=O)c1[nH]c2ccccc2c1NC(=O)CCN1CC(C)OC(C)C1 (centres undefined) | 3 | -2% | -3.5% | 3%
O=C(CCCn1cncn1)N1CCCC(Nc2ccc(F)cc2)C1 (centres undefined) | . | -1% | -2.1% | -1%
O=C(Oc1ccc(Br)cc1)C1CCN(C2=NS(=O)(=O)c3ccccc32)CC1 | . | . | 2.2% | -19%
CCC(C)[C@H]1COCCS(=O)(=O)N1Cc1ccc(Cl)cc1Cl (some centres undefined) | . | 1% | 0.9% | 15%

These rows are one share of the data, so the mix of outcomes need not match the whole.
